GALR2 ag – activates the human galanin receptor 2. O43603. GALR2-expressing cells, agonist activation read-out. activation, %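 (tested at 5 µM)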. 140,000 tested, 0.48% active. AID 803;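 active means above mean plus 3 SD of all compounds, about 5% in these data, not always enough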;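 further: 0% = vehicle buffer wells and 100% = reference agonist at full effect; tested in CHO reporter cells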
Target sequence (O43603 whole entry, looked up): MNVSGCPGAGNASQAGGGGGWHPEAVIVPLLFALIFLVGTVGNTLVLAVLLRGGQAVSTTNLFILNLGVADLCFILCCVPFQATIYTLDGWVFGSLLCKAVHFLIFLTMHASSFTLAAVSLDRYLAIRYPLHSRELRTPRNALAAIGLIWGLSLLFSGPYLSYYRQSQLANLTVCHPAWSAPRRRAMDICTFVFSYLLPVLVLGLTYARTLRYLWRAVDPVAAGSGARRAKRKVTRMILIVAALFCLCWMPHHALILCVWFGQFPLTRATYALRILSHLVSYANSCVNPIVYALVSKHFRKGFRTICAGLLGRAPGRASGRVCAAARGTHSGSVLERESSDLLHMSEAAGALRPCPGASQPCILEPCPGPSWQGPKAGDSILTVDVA
PKD1 kinase inh – PKD1 (human) kinase inhibition | Q15139 | PKD1 kinase fluorescence polarization assay | inhibition, %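 (about 10 µM by stock and volumes)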 | 200,000 tested, 0.056% active;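 active means inhibition of 50% or more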;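 further: controls were vehicle for no effect and a reference inhibitor for full effect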
HSV augment – HSV replication enhancement | HSV replication augmentation in cells, fold increase | maximum fold increase | 220,000 tested, 0.005% active;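 active means peak rise of 1.5-fold or more in the series; tested in PC3 cells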;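 further: first round at 10 µM; read as green reporter fluorescence; hits show the peak of a series up to 25 µM; 1 = signal of infected wells without compound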
INS promoter inh – TRM-6 insulin promoter activity inhibition | TRM-6 cells (human fetal islet line), insulin promoter-eGFP reporter, imaging; reporter expression induced with tamoxifen | inhibition, % at 2 µM | 130,000 tested, 0.9% active | AID 1273;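 active means inhibition above the mean plus 3 SD, with well images judged a real hit on visual review, cut at about 60% in these data, passing the limit was not always enough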
RGS16-Gao – modulates binding between human RGS16 and Galphao; O15492+P09471; bead-based flow cytometry RGS16-Galphao binding, fluorescence; actives lie on both sides; binding response (% of control), % at 10 µM; 220,000 tested, 0.38% active; AID 1441;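 active means below 25% or above 175%, edge rows of some plates excepted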;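 further: Galphao activated by GDP with aluminum fluoride before binding; 100% = wells without compound and 0% = beads without RGS; some results beyond the cut were filed as inactive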
Target sequence (O15492 whole entry, looked up): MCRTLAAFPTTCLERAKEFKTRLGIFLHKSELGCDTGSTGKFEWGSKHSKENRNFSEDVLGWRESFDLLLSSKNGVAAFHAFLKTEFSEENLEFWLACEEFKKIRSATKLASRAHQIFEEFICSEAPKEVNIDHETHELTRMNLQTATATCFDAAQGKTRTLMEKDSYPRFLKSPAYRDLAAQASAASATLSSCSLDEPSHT
Target sequence (P09471 whole entry, looked up): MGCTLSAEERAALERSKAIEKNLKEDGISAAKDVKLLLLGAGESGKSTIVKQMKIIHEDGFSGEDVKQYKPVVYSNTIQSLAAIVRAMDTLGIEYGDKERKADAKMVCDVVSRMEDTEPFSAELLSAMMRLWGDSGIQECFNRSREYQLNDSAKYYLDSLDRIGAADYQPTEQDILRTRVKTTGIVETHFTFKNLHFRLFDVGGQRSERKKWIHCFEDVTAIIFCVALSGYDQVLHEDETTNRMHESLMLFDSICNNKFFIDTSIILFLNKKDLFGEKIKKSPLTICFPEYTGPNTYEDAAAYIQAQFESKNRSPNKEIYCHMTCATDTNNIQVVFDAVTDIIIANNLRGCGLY
INS promoter inh cell count – further read-out of INS promoter inh, marked with its call; normalized cell count, %; measured here: cell count, toxicity; reference of the scale not given here;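 cells exposed to compound for 48 h; stained nuclei by imaging scaled within each plate; lower means fewer cells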
HSV augment primary fold – also measured in HSV augment; calls as there; fold increase; compound at 10 µM; measured here: primary screen fold increase 10 uM; tested in PC3 cells;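 GFP signal in the first replicate; 1 = infected wells without compound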
* marks the source's active call; other numbers are inactive results.

`Cn1c(SCC(=O)Nc2ccc3cn[nH]c3c2)nnc1-c1cnccn1` gave GALR2 ag -0.9, PKD1 kinase inh -9, HSV augment inactive, INS promoter inh -6, RGS16-Gao 103, INS promoter inh cell count 99 and HSV augment primary fold 1.1.
C/C(=N\NC(=O)COc1ccc(C(C)(C)C)cc1)c1ccc(N2CCOCC2)cc1 was read as GALR2 ag -0.1, PKD1 kinase inh 0, HSV augment inactive, INS promoter inh 0, RGS16-Gao 109, INS promoter inh cell count 110 and HSV augment primary fold 0.82.
For COC(=O)c1cccc(Oc2cccc(C(F)(F)F)c2)n1 the results were PKD1 kinase inh -5, HSV augment inactive, RGS16-Gao 95 and HSV augment primary fold 0.86.
COc1cccc(CN2CCN(Cc3ccon3)CC2CCO)c1 (configuration not stated) was read as PKD1 kinase inh 4, HSV augment inactive, RGS16-Gao 93 and HSV augment primary fold 0.97.
`O=C(O)c1ccc(O)c(O)c1` gave HSV augment inactive, RGS16-Gao 96 and HSV augment primary fold 0.94.
`Cc1cccc(-c2noc(CCCC(=O)Nc3cccnc3)n2)c1` gave GALR2 ag -0.2, PKD1 kinase inh 0 and RGS16-Gao 104.
For C=C(C)CSC1=C(C#N)C(c2ccccc2)CC(=O)N1 (configuration not stated) the results were GALR2 ag -1.3, PKD1 kinase inh -4, HSV augment inactive and HSV augment primary fold 0.93.
Screening C/C(N)=C(/C#N)C(=O)CSc1ncnc2ccccc12 returned GALR2 ag -0.6, PKD1 kinase inh 2, HSV augment inactive, INS promoter inh 7, RGS16-Gao 103, INS promoter inh cell count 108 and HSV augment primary fold 0.99.
COC(=O)c1cc(NC(=O)CC2C(=O)NCCN2C(=O)c2ccc(F)cc2)cc(C(=O)OC)c1 (configuration not stated) was read as GALR2 ag -1.8, PKD1 kinase inh -5, INS promoter inh 23, RGS16-Gao 92 and INS promoter inh cell count 115.
Screening CC(NC(=S)Nc1ccccc1)C1COc2ccccc2O1 (configuration not stated) returned GALR2 ag -1.9, PKD1 kinase inh 9, HSV augment inactive, INS promoter inh -7, RGS16-Gao 98, INS promoter inh cell count 126 and HSV augment primary fold 1.
Screening S=C(NCc1ccc(Cl)cc1Cl)NC1CCCCC1 returned GALR2 ag -2.3, PKD1 kinase inh -10, HSV augment inactive, INS promoter inh -50, RGS16-Gao 107, INS promoter inh cell count 79 and HSV augment primary fold 0.91.
O=C(O)c1cccc(N=NN2CCCCCC2)c1 was read as GALR2 ag -1.4, PKD1 kinase inh -10, HSV augment inactive, INS promoter inh 34, RGS16-Gao 65, INS promoter inh cell count 66 and HSV augment primary fold 0.97.
Screening COc1cc(C(=S)N2CCOCC2)ccc1OS(=O)(=O)c1ccc(NC(C)=O)cc1 returned GALR2 ag -0.3, PKD1 kinase inh 0, HSV augment inactive, RGS16-Gao 108 and HSV augment primary fold 0.85.
`COc1ccc(/C=C2/C(=O)OCc3cc(OC)c(OC)cc32)c(OC)c1` gave GALR2 ag -0.8, PKD1 kinase inh -8, HSV augment inactive, INS promoter inh -18, RGS16-Gao 106, INS promoter inh cell count 91 and HSV augment primary fold 0.76.
Screening O=C(COC(=O)CNS(=O)(=O)c1ccc2ccccc2c1)Nc1ccc2c(c1)OCO2 returned GALR2 ag -0.9, PKD1 kinase inh 1, HSV augment inactive, RGS16-Gao 101 and HSV augment primary fold 1.
`O=C(O)c1ccnc(SCC(=O)c2ccccc2)c1` gave GALR2 ag -0.8, PKD1 kinase inh 12, HSV augment inactive, INS promoter inh -31, RGS16-Gao 104, INS promoter inh cell count 127 and HSV augment primary fold 0.99.
Screening CC1CCN(CC(=O)Nc2ccc(S(=O)(=O)NC3CC3)cc2)CC1 returned HSV augment inactive, RGS16-Gao 103 and HSV augment primary fold 0.88.
`CN(C)S(=O)(=O)c1cccc(NC(=O)COC(=O)C2(c3ccccc3F)CCCC2)c1` gave GALR2 ag 0.3, PKD1 kinase inh 4, HSV augment inactive, INS promoter inh 14, RGS16-Gao 95, INS promoter inh cell count 55 and HSV augment primary fold 0.85.
For CC1CCCCC1NC(=O)c1ccc(N2CCCC2=O)cc1 (configuration not stated) the results were GALR2 ag -0.8, PKD1 kinase inh -8, HSV augment inactive, INS promoter inh -50, RGS16-Gao 93, INS promoter inh cell count 113 and HSV augment primary fold 1.
COc1ccc(OC)c(S(=O)(=O)N2CCNCC2)c1 was read as HSV augment inactive, RGS16-Gao 94 and HSV augment primary fold 0.87.

Quoted at random: 2 compounds from above, in no set order.
Screening COc1cc(C(=S)N2CCOCC2)ccc1OS(=O)(=O)c1ccc(NC(C)=O)cc1 returned GALR2 ag -0.3, PKD1 kinase inh 0, HSV augment inactive, RGS16-Gao 108 and HSV augment primary fold 0.85.
O=C(O)c1cccc(N=NN2CCCCCC2)c1 was read as GALR2 ag -1.4, PKD1 kinase inh -10, HSV augment inactive, INS promoter inh 34, RGS16-Gao 65, INS promoter inh cell count 66 and HSV augment primary fold 0.97.

Following part:
O=C(/C=C/c1ccccc1[N+](=O)[O-])NCc1ccncc1 was read as PKD1 kinase inh -2, HSV augment inactive, RGS16-Gao 102 and HSV augment primary fold 1.1.
`Cc1ccc(S(=O)(=O)N2CCC(=O)N(C(CO)Cc3ccccc3)CC2)cc1` (configuration not stated) gave GALR2 ag -1.0, PKD1 kinase inh -6, HSV augment inactive, INS promoter inh -30, RGS16-Gao 98, INS promoter inh cell count 131 and HSV augment primary fold 0.95.
For O=C(NCCc1nc2ccccc2[nH]1)Nc1ccccc1 the results were GALR2 ag -0.6, PKD1 kinase inh -11, HSV augment inactive, RGS16-Gao 111 and HSV augment primary fold 0.94.
Screening CCOc1ccc(CCNC(=O)Cn2cccc2C(=O)c2ccccc2)cc1OCC returned GALR2 ag -1.9, PKD1 kinase inh -10, HSV augment inactive, INS promoter inh -44, RGS16-Gao 105, INS promoter inh cell count 94 and HSV augment primary fold 0.9.
Screening CCN1C(c2ccccc2)=C(c2ccccc2)S/C1=C\C=C1/SC(=S)N(C)C1=O returned GALR2 ag -1.0, PKD1 kinase inh 1, HSV augment inactive, INS promoter inh -5, INS promoter inh cell count 134 and HSV augment primary fold 0.83.
Screening CN(C)S(=O)(=O)N1CCC(CCCC2CCN(S(=O)(=O)N(C)C)CC2)CC1 returned GALR2 ag -0.3, PKD1 kinase inh 6, HSV augment inactive, INS promoter inh -39, RGS16-Gao 108, INS promoter inh cell count 130 and HSV augment primary fold 0.93.
`CCOC(=O)CSc1nc2ccccc2c(=O)n1CC` gave GALR2 ag -1.9, PKD1 kinase inh -4, HSV augment inactive, INS promoter inh -107, RGS16-Gao 101, INS promoter inh cell count 50 and HSV augment primary fold 0.99.
CCN(CC)C(=O)c1sc(NC(=O)c2ccc3c(c2)OCO3)c(C#N)c1C was read as GALR2 ag -2.6, PKD1 kinase inh 8, HSV augment inactive, INS promoter inh 21, RGS16-Gao 69, INS promoter inh cell count 182 and HSV augment primary fold 0.9.
`CCn1c(SCC(=O)NCc2ccccc2)nc2c(c1=O)SC(C)C2` (configuration not stated) gave GALR2 ag -1.3, PKD1 kinase inh -5, HSV augment inactive, RGS16-Gao 101 and HSV augment primary fold 0.85.
`COc1ccc(C(=O)N2CCOCC2)cc1S(=O)(=O)N1CCCc2ccccc21` gave PKD1 kinase inh -1, HSV augment inactive, INS promoter inh -39, RGS16-Gao 103, INS promoter inh cell count 121 and HSV augment primary fold 0.93.
For O=C1c2ccccc2C(=O)N1CSc1nnc(Nc2ccccc2)s1 the results were PKD1 kinase inh 1, HSV augment inactive, RGS16-Gao 95 and HSV augment primary fold 0.69.
Screening O=C(CCS(=O)(=O)c1cccs1)Nc1ccc(C(=O)NCc2ccccc2)cc1 returned GALR2 ag -1.1, PKD1 kinase inh 12, HSV augment inactive, RGS16-Gao 113 and HSV augment primary fold 0.72.
For CCOC(=O)N1CCN(C(=O)CSc2nnc(-c3c[nH]c4ccccc34)n2CCOC)CC1 the results were GALR2 ag -0.1, PKD1 kinase inh -8, INS promoter inh -14, RGS16-Gao 100 and INS promoter inh cell count 73.
For Cc1cc(C(C)(C)C)oc1C(=O)N(CC(=O)NC1CCCC1)Cc1ccccc1 the results were GALR2 ag -2.7, PKD1 kinase inh 8, HSV augment inactive, RGS16-Gao 104 and HSV augment primary fold 1.
For NC(=O)Cn1nnc(-c2ccc(CN3CCCCC3)cc2)n1 the results were PKD1 kinase inh -4, HSV augment inactive, RGS16-Gao 102 and HSV augment primary fold 1.
For CN1CCN(NC(=S)NC2CCCCC2)CC1 the results were GALR2 ag -1.5, PKD1 kinase inh 7, HSV augment inactive, INS promoter inh -25, RGS16-Gao 102, INS promoter inh cell count 96 and HSV augment primary fold 1.1.
For COC(=O)CCCCNC(=O)Nc1ccccc1 the results were PKD1 kinase inh 2, HSV augment inactive, RGS16-Gao 103 and HSV augment primary fold 1.
CC(c1ccccc1)C1CC(=O)N(c2cc(Cl)ccn2)C1=O (configuration not stated) was read as HSV augment inactive, RGS16-Gao 104 and HSV augment primary fold 1.
For S=C(c1ccc(-c2ccc(Br)cc2)o1)N1CCOCC1 the results were HSV augment inactive, RGS16-Gao 99 and HSV augment primary fold 0.96.
`COc1ccc(NC(=O)Cc2c(SC)c3ccccc3n2Cc2ccccc2)cc1` gave GALR2 ag -1.5, PKD1 kinase inh 0, HSV augment inactive, INS promoter inh 18, RGS16-Gao 135, INS promoter inh cell count 44 and HSV augment primary fold 0.86.
For O=C(NNC(=O)c1cc(-c2ccc(Cl)c(Cl)c2)nc2ccccc12)Nc1ccccc1 the results were GALR2 ag -2.3, PKD1 kinase inh -3 and RGS16-Gao 107.
`CCOC(=O)C(C)Sc1nc2c(c(=O)[nH]c(=O)n2C)n1C/C=C(/C)Cl` (configuration not stated) gave GALR2 ag 0.4, PKD1 kinase inh -14, HSV augment inactive, INS promoter inh -8, RGS16-Gao 77, INS promoter inh cell count 149 and HSV augment primary fold 0.83.
For CC1=C(C(=O)OCCOc2ccccc2)C(c2ccc(C)o2)C2=C(CC(C)(C)CC2=O)N1 (configuration not stated) the results were GALR2 ag 1.1, PKD1 kinase inh 5, HSV augment inactive, RGS16-Gao 101 and HSV augment primary fold 0.86.
`COc1ccccc1NC(=O)c1ccc(NS(=O)(=O)c2cccc3cccnc23)cc1` gave GALR2 ag 1.3, PKD1 kinase inh -5, HSV augment inactive, RGS16-Gao 101 and HSV augment primary fold 0.86.
`Clc1ccc(CSc2ccc(-c3ccccn3)nn2)cc1` gave PKD1 kinase inh -2, HSV augment inactive, INS promoter inh 0, RGS16-Gao 107, INS promoter inh cell count 68 and HSV augment primary fold 0.87.
For Cc1cc(C)c(S(=O)(=O)N(CC(=O)O)CC(=O)O)c(C)c1 the results were GALR2 ag -0.3, PKD1 kinase inh 3, HSV augment inactive, RGS16-Gao 81 and HSV augment primary fold 0.85.
CN(C)S(=O)(=O)NCCNC(=O)c1cc(OCC(F)(F)F)ccc1OCC(F)(F)F was read as PKD1 kinase inh -8, HSV augment inactive, INS promoter inh -50, RGS16-Gao 98, INS promoter inh cell count 49 and HSV augment primary fold 1.
Cn1c(NNC(=O)c2ccc(C(C)(C)C)cc2)cc(=O)n(C)c1=O was read as GALR2 ag 1.8, PKD1 kinase inh -1, HSV augment inactive, RGS16-Gao 98 and HSV augment primary fold 1.1.
For NC(=O)c1ccsc1NC(=O)c1nc(-c2ccccc2)n(-c2ccccc2)n1 the results were GALR2 ag -1.6, PKD1 kinase inh 0, HSV augment inactive, INS promoter inh 37, RGS16-Gao 100, INS promoter inh cell count 98 and HSV augment primary fold 0.84.
Screening Cc1ccc(NC(=O)CN2CCc3ccccc3C2)cc1S(=O)(=O)N(C)C returned PKD1 kinase inh -6, HSV augment inactive, RGS16-Gao 101 and HSV augment primary fold 0.83.

Entries above with a Cl atom, in the order listed:
Screening S=C(NCc1ccc(Cl)cc1Cl)NC1CCCCC1 returned GALR2 ag -2.3, PKD1 kinase inh -10, HSV augment inactive, INS promoter inh -50, RGS16-Gao 107, INS promoter inh cell count 79 and HSV augment primary fold 0.91.
CC(c1ccccc1)C1CC(=O)N(c2cc(Cl)ccn2)C1=O (configuration not stated) was read as HSV augment inactive, RGS16-Gao 104 and HSV augment primary fold 1.
For O=C(NNC(=O)c1cc(-c2ccc(Cl)c(Cl)c2)nc2ccccc12)Nc1ccccc1 the results were GALR2 ag -2.3, PKD1 kinase inh -3 and RGS16-Gao 107.
`CCOC(=O)C(C)Sc1nc2c(c(=O)[nH]c(=O)n2C)n1C/C=C(/C)Cl` (configuration not stated) gave GALR2 ag 0.4, PKD1 kinase inh -14, HSV augment inactive, INS promoter inh -8, RGS16-Gao 77, INS promoter inh cell count 149 and HSV augment primary fold 0.83.
`Clc1ccc(CSc2ccc(-c3ccccn3)nn2)cc1` gave PKD1 kinase inh -2, HSV augment inactive, INS promoter inh 0, RGS16-Gao 107, INS promoter inh cell count 68 and HSV augment primary fold 0.87.
